Assay outcomes as filed in PubChem BioAssay.
VDR inhibitor – inhibitors of human vitamin D receptor. P11473. VDR-SRC2-3 peptide fluorescence polarization, 2 h. Potency, µM, for inactives: max response, negative = inhibition, actives largely listed as inhibitors. 0.93% of 400,000 active. AID 504847; active = well fitted inhibition curve with a large enough effect; inconclusive = small, poorly fitted or top-dose-only effect, or another doubt; inactive = no such curve, though single readings can be large or run the other way; note: series mostly up to about 120 µM
Target sequence (P11473 whole entry, looked up): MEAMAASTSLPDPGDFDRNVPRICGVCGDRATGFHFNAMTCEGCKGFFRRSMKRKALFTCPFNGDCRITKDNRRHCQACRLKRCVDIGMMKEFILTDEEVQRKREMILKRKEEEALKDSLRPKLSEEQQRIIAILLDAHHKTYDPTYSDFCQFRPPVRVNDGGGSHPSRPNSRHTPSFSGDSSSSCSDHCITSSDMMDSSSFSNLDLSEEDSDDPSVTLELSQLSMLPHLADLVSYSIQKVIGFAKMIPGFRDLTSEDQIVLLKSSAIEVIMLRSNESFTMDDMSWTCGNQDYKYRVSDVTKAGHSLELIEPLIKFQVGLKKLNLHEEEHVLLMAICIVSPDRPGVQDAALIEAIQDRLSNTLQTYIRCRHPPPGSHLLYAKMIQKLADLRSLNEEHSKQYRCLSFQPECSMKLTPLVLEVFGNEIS
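Reagent solutions, kept cold and dark, are dispensed first; compounds are then pinned in at 23 nl, plates briefly spun, and incubated 2 h at ambient temperature. Inhibition of VDR–SRC2-3 peptide binding is read by fluorescence polarization.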
The depositor's hits bear a star; ? = inconclusive; & = joins results of further samples. % is set by controls: 0 for no effect and ±100 for the full control effect; potency is the fitted concentration of half-maximal effect. These rows are one share of the data; the hit share may differ from the screen's.

Structure | VDR inhibitor
O=C(NCc1ccc(Cl)cc1)C1CCC(CNc2c(N3CCCCC3)c(=O)c2=O)CC1 (stereo unspecified) | 4.3%
Cc1cc(C(=O)N2CCCC(C(=O)c3ccc(Cl)cc3C)C2)no1 (stereo unspecified) | -6.0%
COCCNS(=O)(=O)c1cc(-c2nn(C)c(=O)c3ccccc23)ccc1C | 15.0%
CCOC(=O)C1CCN(c2nnc(N3CCCC3=O)s2)CC1 | 19.2%
O=C(c1cccc(F)c1)N1CCCc2ccccc21 | -14.3%
O=C(NN=Cc1cccc2ccccc12)C(=O)NN=Cc1cccc2ccccc12 | 2.6%
CCSC1=N/C(=C\c2ccccc2)C(=O)N1c1ccc(OC)cc1 | -3.4%
C=CCc1ccccc1OCC(O)CN(CC)CC (stereo unspecified) | 7.5%
Cc1cccc(C)c1N(CC(=O)N1CCN(c2ccccc2F)CC1)S(C)(=O)=O | -12.3%
CC1CN(C(=O)C(C)OC(=O)c2ccc3ncsc3c2)CC(C)O1 (stereo unspecified) | -26.5%
CN1C(=O)NC(c2cccc([N+](=O)[O-])c2)C2=C1CCCC2=O (stereo unspecified) | -4.9%
COc1cc(OC)cc(C(=O)NCCNC(=O)c2ccccc2)c1 | -4.7%
CN(C(=O)COC(=O)c1cc(S(=O)(=O)N2CCCCC2)ccc1Cl)c1ccccc1 | 12.7%
Cc1cccc2cc(C#N)c(NCc3ccccc3)nc12 | -5.5%
CC(OC(=O)c1oc2ccccc2c1COc1ccccc1)C(=O)NC(N)=O (stereo unspecified) | -19.6%
Cn1c(=O)c2c(nc(OC/C=C/c3ccccc3)n2C)n(C)c1=O | -5.4%
CCOc1ccc(CNC(=O)c2ccc(CSc3nc4ccncc4n3Cc3ccc(F)cc3)cc2)cc1 | 3.3%
CC(C)(C)CC(=O)N1CCC(c2nc3c(nnn3Cc3c(F)cccc3Cl)c(=O)[nH]2)CC1 | 7.4%
O=S1(=O)NC2CCCCCN2c2ccc(F)cc21 (stereo unspecified) | 2.6%
O=C(c1cc(C(F)(F)F)cc(C(F)(F)F)c1)N1CCC2(CCN(Cc3ccncc3)CC2)CC1 | -26.4%

3 of the entries above in order of the VDR inhibitor value, smallest number first.
structure | VDR inhibitor
CC1CN(C(=O)C(C)OC(=O)c2ccc3ncsc3c2)CC(C)O1 (stereo unspecified) | -26.5%
CC(OC(=O)c1oc2ccccc2c1COc1ccccc1)C(=O)NC(N)=O (stereo unspecified) | -19.6%
O=C(NN=Cc1cccc2ccccc12)C(=O)NN=Cc1cccc2ccccc12 | 2.6%

Next section.
Structure | VDR inhibitor
CC1CC(C)CN(c2ncnc3c2cnn3C)C1 (stereo unspecified) | -0.8%
CCn1c(SCC(=O)NC2=NCCS2)nnc1C(C)NC(=O)c1ccccc1F (stereo unspecified) | 3.8%
Cc1ccccc1OCC1CNC(=O)O1 (stereo unspecified) | 17.6%
Cc1ccc2cc3c(NC(=O)C(C)C)nn(C)c3nc2c1 | -9.6%
COc1ccc(OC)c(NC(=O)Nc2cccnc2)c1 | 14.2%
Cc1ccc(CC2CC(=O)N(CCc3ccccc3)C2=O)cc1 (stereo unspecified) | 19.6%
COc1ccc(C2OC(=O)CC2C(=O)N2CCN(c3cc(Cl)ccc3C)CC2)cc1OC (stereo unspecified) | -2.7%
O=C(COc1cccc2cccnc12)N/N=C/c1ccccc1O | 13.7%
COc1ccccc1Cn1c(=S)[nH]c2cc(C(=O)NCCN3CCOCC3)ccc2c1=O | 4.1%
Cc1cccc(C(=O)N2CCN(c3ccccn3)CC2)c1 | -4.3%
COC(=O)/N=C/c1c(NCc2ccccc2)nc2c(C)cccn2c1=O | 3.3%
Cc1ccc(C)n1-c1ccsc1C(=O)CC#N | -19.3%
CCc1ccc(OCCSc2nc3ccccc3n2CCC(=O)O)cc1 | -16.9%
Cc1ccc(-n2c(O)c(C=Nc3ccccc3-c3n[nH]c(=S)[nH]c3=O)c3ccccc3c2=O)c(C)c1 | -3.3%
CCCC[C@H](NC(=O)[C@H](CC(C)C)NC(=O)CNC(=O)[C@@H](NC(=O)[C@H](Cc1ccccc1)NC(=O)[C@H](CO)NC(=O)[C@@H](N)CC(=O)O)C(C)C)C(N)=O | 1.1%
CC1CCCN(c2ccc(C(=O)NCC3CCCO3)cn2)C1 (stereo unspecified) | 5.2%
O=C(CSc1ccc2nnc(-c3ccc(F)cc3)n2n1)NCc1ccco1 | 6.1%
Cc1ccc(C(=O)NCCc2csc(-c3cccc(F)c3)n2)cc1C | 8.1%
O=C(c1ccccc1)N(c1ccccc1)c1nccc2ccccc12 | 1.2%
O=C(Cn1ccc2ccccc2c1=O)NCCC(=O)Nc1cccnc1 | -13.0%

Next results follow.
Structure | VDR inhibitor
CCN1C(=Nc2ccc(Cl)cc2)SC/C1=C\C(=O)OC | -1.1%
O=C(Nc1ccc2c(c1)OCO2)C1(S(=O)(=O)c2ccc(Cl)cc2)CC1 | 5.5%
COCCCNC(=O)CN1C(=O)/C(=C/c2ccccc2C)Sc2ccccc21 | -11.2%
COc1c(C)cccc1C(=O)NC(=S)Nc1ccc2c(c1)Cc1ccccc1-2 | 1.5%
COc1ccccc1C1C(C(C)=O)=C(O)C(=O)N1c1ccc(O)cc1 (stereo unspecified) | -22.9%
O=C(c1ccc(Cn2c(=O)[nH]c3ccccc3c2=O)cc1)N1CCN(c2ccccc2)CC1 | -14.3%
O=C(COC(=O)c1ccc(NS(=O)(=O)c2ccc3c(c2)OCCO3)cc1)NC1CC1 | -9.2%
COc1ccc(Cc2ccc(OC)c(N)c2)cc1N | -6.5%
CCc1c(C)sc(NC(=O)c2cc(C)no2)c1C#N | -22.7%
O=C(OCC(=O)c1ccc(Cl)s1)c1ccccn1 | -13.7%
Cc1ccc(C(=O)Nc2cc3c(cc2Cl)OCCCO3)cc1 | 12.9%
Oc1ccc(O)c(-c2cnns2)c1 | 1.7%
Cc1cc2oc(C(=O)Nc3ccc(S(=O)(=O)N(C)c4ccccc4)cc3)cc(=O)c2cc1C | 12.3%
COc1ccc(CCNS(=O)(=O)c2ccc3c(c2)n(C)c(=O)c(=O)n3C)cc1OC | 0.2%
O=C1NNC(c2ccccc2)=N/C1=C\c1ccc(Cl)cc1 | 6.6%
O=S(=O)(c1ccc(F)cc1)N1CCN(CC2CC3C=CC2C3)CC1 (stereo unspecified) | ?
CCOc1ccccc1-n1cc2c(c1-c1ccc(OC)cc1)c(=O)n(C)c(=O)n2C | 6.0%
CC(=O)OC1CSC2c3ccccc3C(=O)N2Cc2sccc21 (stereo unspecified) | 1.1%
C[N+](C)(C)C/C=C1/COCO1 | -9.9%
COc1cccc(Cn2c(=O)cnc3cnc(OCc4ccccc4)nc32)c1 | -4.8%

Other structures:
Structure | VDR inhibitor
CCCCCCCc1cc2c(cn1)=C(OC)C(C)(OC(C)=O)C(=O)C=2Cl (stereo unspecified) | 1.1%
CN(C)CCCNS(=O)(=O)c1ccc(N2CCN(Cc3ccc4c(c3)OCO4)CC2)c([N+](=O)[O-])c1 | -20.8%
c1ccc(C2NCCn3cccc32)cc1 (stereo unspecified) | 12.1%
NC(=O)c1ccsc1NC(=O)COC(=O)c1nc(Cl)ccc1Cl | -2.4%
CC(C)(C)NS(=O)(=O)c1ccc(NC(=O)C(Sc2ccccc2)c2ccccc2)cc1 (stereo unspecified) | 21.9%
O=C(Nc1ccccc1)C(CCCCN1C(=O)c2ccccc2C1=O)N1C(=O)c2ccccc2C1=O (stereo unspecified) | -14.5%
O=C(Nc1nc(-c2ccccn2)cs1)c1cccc(-n2cnnn2)c1 | -19.0%
COc1cc(C(C2C(=O)CC(C)(C)CC2=O)C2C(=O)CC(C)(C)CC2=O)ccc1O | ?
COC(=O)CCC(=O)NC(=S)Nc1c(C)cccc1C | -10.9%
CCCc1nnc(NC(=O)c2ccncc2)s1 | 3.3%
O=C(NCc1ccc(F)cc1)C1CCN(S(=O)(=O)N2CCCC2)CC1 | ?
CCCNC(=O)COc1ccccc1[N+](=O)[O-] | 1.3%
CNC(=O)[C@H]1O[C@H](n2cnc3c(NCc4cccc(I)c4)ncnc32)[C@@H](O)[C@@H]1O | 6.3%
CCOC(=O)c1oc2nc(C(C)C)c3c(c2c1N)CC(C)(C)OC3 | 2.6%
CSc1nc2cc(F)c(F)cc2n1C | 12.5%
N#Cc1c(N)oc(-c2ccc3c(c2)OCO3)c1-c1ccc2c(c1)OCO2 | -11.5%
CC(C)(C)NC(=O)Cn1c(SCC(=O)Nc2nccs2)nc2ccccc21 | 10.0%
Cc1c(OCC(=O)NCCN2CCOCC2)ccc2c(-c3ccccc3)cc(=O)oc12 | -19.6%
Cn1c(SCc2ccccc2)nnc1-c1cnccn1 | -5.3%
Cc1cc(C)cc(S(=O)(=O)c2cn(C)c3cc(N4CCCC4)c(F)cc3c2=O)c1 | -3.1%

Looked up by compound from the list above (6):
Structure | VDR inhibitor
COC(=O)CCC(=O)NC(=S)Nc1c(C)cccc1C | -10.9%
CN(C)CCCNS(=O)(=O)c1ccc(N2CCN(Cc3ccc4c(c3)OCO4)CC2)c([N+](=O)[O-])c1 | -20.8%
N#Cc1c(N)oc(-c2ccc3c(c2)OCO3)c1-c1ccc2c(c1)OCO2 | -11.5%
O=C(Nc1ccccc1)C(CCCCN1C(=O)c2ccccc2C1=O)N1C(=O)c2ccccc2C1=O (stereo unspecified) | -14.5%
O=C(Nc1nc(-c2ccccn2)cs1)c1cccc(-n2cnnn2)c1 | -19.0%
CC(C)(C)NS(=O)(=O)c1ccc(NC(=O)C(Sc2ccccc2)c2ccccc2)cc1 (stereo unspecified) | 21.9%

(cont.)
Structure | VDR inhibitor
CCC(C)(C)c1ccc(OCC(=O)N(C)C)c(C(C)(C)CC)c1 | 13.7%
O=C(O)c1ccc(CSc2nc3cccnc3n2Cc2cccc(F)c2)cc1 | 9.4%
COc1ccc(CCNC(=O)COC(=O)C2CC2C)cc1OC (stereo unspecified) | -15.0%
CCOC(=O)c1c(NC(=O)COC(=O)c2ccccn2)sc2c1CCC2 | -2.8%
Cc1noc2ncnc(N3CCN(c4cccc(C(F)(F)F)c4)CC3)c12 | -3.2%
C=CCn1c(=O)c2ccccc2n2c(SCC(=O)Nc3sc(C)c(CC)c3C(=O)OCC)nnc12 | 6.5%
Cc1scc(C(=O)O)c1-c1c(C(=O)O)csc1C | -12.2%
C=CCn1c(=N)n(CC(=O)c2ccc(OC)cc2)c2ccccc21 | -1.5%
CSCC(=O)N1CCCC(N2CCN(c3cccc(C(F)(F)F)c3)CC2)C1 (stereo unspecified) | -7.6%
O=C1CC(c2ccccc2)C(c2ccccc2)=NN1 (stereo unspecified) | -1.4%
COc1ccccc1NC(=O)NC(N)=O | 9.9%
CN(Cc1nc2ccccc2c(=O)[nH]1)C(=O)c1ccc(S(=O)(=O)N2CCCC2)cc1 | -36.0%
CC(C)c1ccc(S(=O)(=O)c2cnc(SCC(=O)Nc3cccc(C(F)(F)F)c3)nc2N)cc1 | 10.0%
O=S(=O)(CCc1ccccc1)c1nc2ccccc2s1 | -11.7%
CCCN(C(=O)CCc1ccc(OC)cc1)c1c(N)n(Cc2ccccc2)c(=O)[nH]c1=O | -17.4%
O=C(NCc1ccc(F)cc1)C1CCCN(c2nc3ccsc3c(=O)s2)C1 (stereo unspecified) | -22.5%
Cc1cccc(N2CCN(C(=O)c3cccn3-c3nnc(N4CCCCC4)s3)CC2)c1C | -1.0%
CC(=O)c1ccc(NC(=O)CSc2nnc(-c3ccncc3)n2-c2ccccc2)cc1 | 13.9%
CCN(CC)C(=O)Oc1ccc2ccccc2c1Br | -8.7%
Cc1cc(NC(=O)CSc2nnc3c(C)cc4c(C)ccc(C)c4n23)no1 | 3.5%

Additional structures
Structure | VDR inhibitor
COc1ccc(NC(=O)c2ccc(Cl)c(S(=O)(=O)N3CCc4ccccc4C3)c2)cn1 | -8.8%
COc1ccc2nc(C)cc(SCC(=O)N/N=C/c3cccc4ccccc34)c2c1 | -8.9%
COc1ccc(C(=O)Nc2ccccc2C(=O)NCCCn2ccnc2)cc1 | -6.6%
COc1cc(NC(=O)C2CCN(C(=O)c3sc4nc[nH]c(=O)c4c3C)CC2)cc(OC)c1OC | -5.5%
Cc1ccc(S(=O)(=O)NC(=O)c2ccc(Br)o2)cc1 | 7.0%&1.0%
CCCCCOc1ccc(NC(=O)Cn2c(-c3nonc3N)nc3ccccc32)cc1 | -8.8%
Cc1ccc(NC(=O)c2cccn2-c2nnc(N3CCCCC3)s2)cc1Cl | 9.8%
CS(=O)(=O)N(CC(=O)Nc1ccc(S(=O)(=O)N2CCOCC2)cc1)c1cccc(F)c1 | -1.1%
O=C(CCn1cnc2ccccc21)N=Nc1c(O)[nH]c2ccccc12 | -2.3%
Cc1cccc(N2CCCn3c2nc2c3c(=O)[nH]c(=O)n2C)c1 | 13.6%
COC(=O)Cc1cc(=O)[nH]c(Nc2nc3ccccc3o2)n1 | 11.8%
Cc1sc2nc(CSC(C)C(=O)N(C)CC(=O)Nc3ccccc3C(F)(F)F)[nH]c(=O)c2c1C (stereo unspecified) | 3.5%
Cc1cc(Nc2ccc(Br)cc2)nc(C)n1 | 3.5%
COc1ccccc1NC(=O)c1c(C)oc2c1CCCC2 | 8.1%
Cc1ccc(NS(=O)(=O)c2cc(NC(=O)c3ccc4c(c3)NC(=O)CS4)ccc2C)c(C)c1 | ?
CC(C)C(C(=O)O)N1C(=O)/C(=C/c2cccn2C)SC1=S (stereo unspecified) | 2.3%
COc1ccccc1N1CCN(C(=O)C(=O)c2c(C)[nH]c3ccccc23)CC1 | 3.8%
CCOC(=O)CSc1nnc(C)c(C)n1 | -10.1%
COc1ccc2c(c1)c1c(c(=O)n(-c3ccccc3C)c(=O)n1C)n2C | 11.6%
COCCNC(=O)CN1CCN(Cc2cccc(Cl)c2)C1=O | 3.8%

Continuation:
Structure | VDR inhibitor
COc1cccc(NC(C)=[N+](C)CCNS(=O)(=O)c2ccc(Cl)cc2)c1 | -13.7%
C/C(=N\NC(=O)c1ccoc1C)c1ccc(Cl)s1 | 1.6%
Cc1cccc(NC(=O)CSc2nc3ccccc3nc2N2CCCC2)c1 | -16.1%
O=C(CCNC(=O)c1ccco1)Nc1ccccc1OC(F)F | -12.3%
